Screens: PubChem BioAssay, Fisher Drug Discovery Resource Center
NPYLR7 agonist – agonists of mosquito NPYLR7 receptor, primary screen, cell-based, Aedes aegypti, calcium fluorescence, mosquito biting behavior | HEK293T NPYLR7/Galpha15, GCaMP6s calcium fluorescence | activation, % at 10 µM | hit rate 0.15% among 270,000; in the data active = activation above about 40%;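 also: 0% = vehicle and 100% = reference agonist at the receptor; some compounds past the cut are filed as inactive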
NPYLR7 agonist max-min – second read-out of NPYLR7 agonist, no call of its own (marks repeat the call); activation, %; measured here: Max-Min RFU normalised activation; some inactives read as strong as hits;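 span of the calcium signal over five minutes; 0% = vehicle and 100% = native peptide agonist; compound fluorescence can raise it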
An asterisk follows results filed as active; & = joins results of further samples.

molecule	NPYLR7 agonist	NPYLR7 agonist max-min
COc1ccc(C2c3[nH]c4ccccc4c3CCN2C(=O)CSc2ccccn2)c(F)c1 (configuration not stated)	6	3
Cc1ccccc1CN(Cc1ccc(F)cc1)CC(O)COCC(C)C (configuration not stated)	-8	-3
CC(C)c1ccccc1NC(=O)C(C)N(C)CC1CCCN(C)C1 (configuration not stated)	2	1
CCCCCc1nnc(NC(=O)c2ccc(CCNC(C)=O)cc2)s1	22	19
c1ccc(C(c2ccccc2)c2noc(CN3CCCC(c4nc5ccccc5[nH]4)C3)n2)cc1 (configuration not stated)	14	7
CN1CCC(N2CCC(CN(Cc3ccncc3)C(=O)c3ccccc3)CC2)CC1	7	6
CC1(C)Cc2c(ccc3ccccc23)C2=C(C#N)C(=O)C(=O)N21	-1	-5
N#Cc1cccc(C(=O)Nc2ccc(C3=CSC4=NCCCN34)cc2)c1	-1	-4
COc1ccc(C2=NOC(CN(Cc3ccc(F)cc3F)CC(O)COCc3ccco3)C2)cc1 (configuration not stated)	-2	5
O=C(c1ccccc1C1CCNC1)N1CCC(O)(Cn2ccnc2)CC1 (configuration not stated)	-1	-10
COc1ccc(CNC(=O)c2cccnc2N2CCN(S(=O)(=O)c3ccc(C(F)(F)F)cc3)CC2)cc1	18	-2
CC(NC(=O)C1CC(=O)Nc2cc(F)ccc21)c1ccc(F)cc1 (configuration not stated)	9	6
CSc1ccc(C(=O)CCC(=O)NC2CCC(C(C)(C)C)CC2)cc1 (configuration not stated)	-20	-24
CCc1ccc(C(C)NC(=O)CN2CCN(c3nccs3)CC2)cc1 (configuration not stated)	-3	-5
Cc1ccc(CNC(=O)Nc2ccccc2N2CCCC2)cc1	3	0
Cc1cc(C)n(C(=O)CCCCCC(=O)n2nc(C)cc2C)n1	-11	-14
CSC1(CNC(=O)N2CCCC2c2cccs2)CCOCC1 (configuration not stated)	-15	-18
CN(C)c1cc(C(=O)NC2CCCCC2n2cccn2)cc(Cl)n1 (configuration not stated)	1	1
COc1cc(OC)c2c(=O)cc(-c3ccccc3)oc2c1C1=COC(C)(C)C1=O	7	3
O=C(O)c1[nH]c2ccc(Br)cc2c1CCN1C(=O)c2cccc([N+](=O)[O-])c2C1=O	9	8
O=C(NCc1cccc(C(F)(F)F)c1)c1ccccc1N1CCC(NC(=O)C2CC2)CC1	15	25
CC(=O)c1ccc(C(=O)N2CCc3c([nH]c4ccccc34)C2c2cccc(C)n2)s1 (configuration not stated)	12	13
COc1ccccc1NC(=O)CSc1ccc2nnc(-c3ccc(OC)c(OC)c3)n2n1	13	10
CC(C)(C)c1cc2nc(-c3ccccc3F)cc(C(=O)Nc3ccccc3F)n2n1	-7&19	-2&32
O=C(c1ccco1)N1CCN(S(=O)(=O)c2cc(F)ccc2F)CC1	1	4
Cc1ccccc1-n1cc(CN(C)C(=O)c2cc3n(n2)CCN(C)C3)cn1	24	9
Cn1c(NNC(=O)c2ccccc2F)cc(=O)n(C)c1=O	0	1
CC1=C(C(=O)OC(C)C)C(c2cccnc2)C2=C(CC(c3ccccc3)CC2=O)N1 (configuration not stated)	-14	-19
O=C(CSc1ncccn1)N1CCCC(c2n[nH]c(=O)n2-c2ccccc2)C1 (configuration not stated)	8	7
O=C(Cn1cnc2sc3c(c2c1=O)CCC3)NCC1CCCCC1	4	6

Single records (already shown). Order of screens: NPYLR7 agonist | NPYLR7 agonist max-min
Results for `O=C(Cn1cnc2sc3c(c2c1=O)CCC3)NCC1CCCCC1` → 4 | 6
Results for `CC(=O)c1ccc(C(=O)N2CCc3c([nH]c4ccccc34)C2c2cccc(C)n2)s1` (configuration not stated) → 12 | 13
Results for `N#Cc1cccc(C(=O)Nc2ccc(C3=CSC4=NCCCN34)cc2)c1` → -1 | -4
Results for `Cc1ccccc1CN(Cc1ccc(F)cc1)CC(O)COCC(C)C` (configuration not stated) → -8 | -3
Results for `c1ccc(C(c2ccccc2)c2noc(CN3CCCC(c4nc5ccccc5[nH]4)C3)n2)cc1` (configuration not stated) → 14 | 7

(cont.)
molecule	NPYLR7 agonist	NPYLR7 agonist max-min
Cc1ccc(C2=N/C(=C\c3ccc(F)cc3)C(=O)O2)cc1C	-4	-9
O=C(NCCC1=CCCCC1)C(=O)NC1CC1	0	7
CN(Cc1ccc2ccccc2c1)Cc1nc(N)nc(N)n1	3	2
COC(=O)CC1CSCCN1Cc1csc(C(C)C)n1 (configuration not stated)	3	0
Cc1ccc(OCc2cc(C(=O)NC(c3cccnc3)C(F)(F)F)no2)cc1C (configuration not stated)	-5	-7
Cc1ccccc1CSc1nnc(CNC(=O)/C=C/c2ccc([N+](=O)[O-])cc2)n1-c1ccc(Cl)cc1Cl	-6	0
CC1(C(=O)Nc2nccs2)CCN1C(=O)CCCc1cccs1 (configuration not stated)	8	6
COc1ccc(C2CCCCN2C(=O)CN2C(=O)C(CC(C)C)NC(=O)c3ccccc32)cn1 (configuration not stated)	1	3
CCC(C)c1ccc(-n2c(-c3ccc(F)cc3C(F)(F)F)nc3ccccc3c2=O)cc1 (configuration not stated)	8	5
Cc1cccn2c(CNCC3Cc4ccccc4CN3C)c(C(=O)N3CCOCC3)nc12 (configuration not stated)	23	8
CCOC(=O)CNC(=O)COc1coc(CN2CCc3ccccc3C2)cc1=O	3	2
Cc1ccc(S(=O)(=O)NC2CCCCC2C(F)(F)F)cc1F (configuration not stated)	4	3
Nc1ccc(Cl)cc1S(=O)(=O)N1CCCCC1	0	-8
COCc1[nH]n(-c2ccc(Cl)c(Cl)c2)c(=O)c1C1=C(N2CCOCC2)C(=O)N(c2ccccc2F)C1=O	4&-22	7&-20
O=C(O)[C@H]1C[C@]2(CCCCNC2=O)N(C(=O)c2ccco2)[C@H]1c1ccco1	3	9
Cc1ccc(C(NC(=O)CN2CC(=O)NC2=O)c2cccnc2)cc1C (configuration not stated)	5	2
Cc1noc(C)c1CN(C)C(=O)c1ccc(CNC(N)=O)cc1	1	2
COCCN1CCN(C(=O)CC2C(=O)NCCN2Cc2cccc(OC)c2OC)CC1 (configuration not stated)	17	7
Cc1ccccc1-c1ccc(CN2CC[C@H](CO)[C@H](O)C2)cc1	-1	-3
CCOC(=O)c1cc(-c2cccc(NC(=O)c3cc(C)oc3C(F)(F)F)c2)n(-c2ccc(F)cc2)n1	24	13
COCC(NC(=O)c1sc2ncn(C)c(=O)c2c1C)c1ccnn1C (configuration not stated)	3	1
COc1ccc(CCNC(=O)Nc2ccc(C)c(-n3cnnn3)c2)cc1	1	0
CCC(C)N(Cc1cc(Cl)ccc1OS(C)(=O)=O)C(=O)NC(C)(C)C (configuration not stated)	-5	-5
O=C1N(Cc2ccc(F)cc2)c2ccccc2OC1(F)F	0	-4
Cc1csc(NC(=O)N(CCN(C)C)Cc2cccc(C#N)c2)n1	-2	-5
CC(C)c1cc(=O)n2c(n1)SCC2CC(=O)Nc1cccnc1 (configuration not stated)	-1	-2
CC1(Cc2ccc(S(C)(=O)=O)cc2)C(=O)Nc2ccc(Cl)cc21 (configuration not stated)	2	3
O=C(NC(c1ccc(F)cc1)c1ccc2ccccc2n1)C1CCN(C(=S)NC2CCCCC2)CC1 (configuration not stated)	3	-8
CN(C)C(=O)Cc1ccc(NC(=O)NC2(C(=O)OC(C)(C)C)CCCC2)cc1	5	0
Cc1c(C)n(Cc2ccccc2)c2ccc(C(=O)OCCCN(C)C)cc12	1	1

Single entries from above:
`COc1ccc(CNC(=O)c2cccnc2N2CCN(S(=O)(=O)c3ccc(C(F)(F)F)cc3)CC2)cc1` – NPYLR7 agonist max-min: -2
`CC1(Cc2ccc(S(C)(=O)=O)cc2)C(=O)Nc2ccc(Cl)cc21` (configuration not stated) – NPYLR7 agonist: 2
`CN1CCC(N2CCC(CN(Cc3ccncc3)C(=O)c3ccccc3)CC2)CC1` – NPYLR7 agonist: 7
`O=C(Cn1cnc2sc3c(c2c1=O)CCC3)NCC1CCCCC1` – NPYLR7 agonist: 4

More records follow:
compound,NPYLR7 agonist,NPYLR7 agonist max-min
CCCNC(=O)NCc1cccnc1N(CC)CC,21,10
COc1ccc(CCN(C)C(=O)C2CCN(c3nc(C)c4cc(C)ccc4n3)CC2)cc1OC,24,10
COCCOC(=O)C1=C(C)NC2=C(C(=O)CC(c3ccc(Cl)cc3)C2)C1c1ccc([N+](=O)[O-])cc1 (configuration not stated),-4,-8
CC1CC1c1ccc(/C=C2/SC(N)=NC2=O)o1 (configuration not stated),6,4
Cc1cc(NCCCn2ccnc2)n2nc(C)c(-c3ccccc3)c2n1,-6,-9
CN1CC(=O)N(Cc2ccc(Cn3nc(NC(=O)c4cccn4C)c4ccccc43)cc2)c2ccccc2C1=O,9,12
COc1cc(/C=C2\SC(=Nc3ccccc3)N(c3ccccc3)C2=O)cc(OC)c1O,0,-6
CN(Cc1csc(Cc2ccc(F)cc2Cl)n1)Cc1cccc2ccccc12,29,38
Cc1cnc2c(c1)NC(=O)CN2C(=O)c1sc(-c2ccc(F)cc2)nc1C,-2,-9
CN(C)CC1(O)CCCN(C(=O)COc2ccc(Cl)c(Cl)c2)C1 (configuration not stated),-7,-11
COc1ccc(NC(=O)C2(C)CCN2C(=O)C(C)(C)c2ccccc2)cc1OC (configuration not stated),8,6
CCOC(=O)C1CCN(C(=O)c2coc(CN(CCc3c[nH]c4ccccc34)Cc3ccccc3OC)n2)CC1,15,24
O=C(CN1CCSC1=O)Nc1ccc(OC(F)(F)F)cc1,6,1
COc1ccccc1-n1c(SCc2nc(C(=O)O)cs2)nnc1-c1ccco1,-3,-6
O=C(NCC(=O)N1CCCC1)c1cc(-c2cccc(Cl)c2)on1,4,3
O=C(O)c1ccc(N2C(=O)CC(Nc3ccc(Cl)cc3)C2=O)cc1 (configuration not stated),4,2
CC(Cn1cnc(-c2ccccc2)c1C1CC1)Oc1cccnc1 (configuration not stated),-7,-12
Clc1ccc(C=NCc2ccc3c(c2)OCO3)cc1,-7,-7
CN(C)CCN(Cc1ccccc1)C(=O)CN1CCCNC1=O,3,-1
CCc1nc2ccc(C(=O)NCCc3ccccn3)cn2c1N(C)Cc1ccc(Cl)cc1,4,20
COc1ccc(-c2cccc3c(C(N)=O)cccc23)cn1,5,2
C=CCN1C(=O)NC(c2cc(C)c(C)cc2C)C2=C1CN(CCCC)C2=O (configuration not stated),3,9
C=c1cc(C)n(CC(=O)Nc2ccccc2C)c(=O)c1=C1N=C(c2ccccc2)NO1,-2,-8
CCc1cc(=O)n(CC(=O)Nc2cc(C)cc(C)c2)c(-n2nc(C)cc2C)n1,-1,-3
COc1cc(OC)cc(-c2onc(C)c2C(=O)NCCCN(C)c2ccccc2)c1,22,15
CCCCc1ccc(S(=O)(=O)N2CCN(c3cc(S(=O)(=O)NCC4CCCO4)ccc3OC)CC2)cc1 (configuration not stated),4,1
Cc1cc(C)cc(CC(=O)N2CCC2(C)C(=O)NS(=O)(=O)c2cccc(C)c2)c1 (configuration not stated),1,0
Cc1ccc(C2(c3noc(CN4CCN(C(=O)c5cccs5)CC4)n3)CCCC2)cc1,5,4
CC1CN(c2ncnc3c2cnn3CCNC(=O)c2ccccc2)CC(C)O1 (configuration not stated),2,-1
O=C(NCc1ccc(F)c(Cl)c1)c1cc(-c2ccc3c(c2)OCO3)nc2ccccc12,22,16
CCOC(=O)c1nn(-c2ccccc2Cl)c(=O)cc1OS(=O)(=O)c1ccc(Cl)s1,5,2
CNc1ccc(-c2cncc3ccccc23)cn1,2,3
O=C(NCC(O)c1ccsc1)C1CC1c1cccc(F)c1F (configuration not stated),3,2
O=C1CCC(C(=O)OCN2C(=O)c3ccccc3C2=O)=NN1,-3,2
Cc1cccc(C(=O)Nc2sc3c(c2C(=O)N2CCOCC2)CCCC3)c1,-1,-2
Cc1ccc(-n2c(SCC(N)=O)nc3c(c2=O)SCC3)cc1,-1,-2
CCn1cc(/C=C/C(=O)O)c(C)n1,-1,-4
COC(C)c1cccc(NC(=O)C(=O)NC2CCN(C(C)C)C2)c1 (configuration not stated),6,11
CCOC(=O)c1cc(-c2ccc(N3CCN(C(=O)c4c(OC)cccc4OC)CC3)cc2)n(-c2ccc(F)cc2)n1,28,22
O=[N+]([O-])c1ccc(-c2nc3c([nH]2)-c2cccc4cccc-3c24)cc1,-7,-16

At a glance, some entries already given:
compound,NPYLR7 agonist,NPYLR7 agonist max-min
Cc1cccc(C(=O)Nc2sc3c(c2C(=O)N2CCOCC2)CCCC3)c1,-1,-2
Cc1ccc(-n2c(SCC(N)=O)nc3c(c2=O)SCC3)cc1,-1,-2
CCn1cc(/C=C/C(=O)O)c(C)n1,-1,-4

New compounds follow.
compound,NPYLR7 agonist,NPYLR7 agonist max-min
COc1ccc(F)cc1C(=O)C1CCCN(Cc2cn(C)c3ccccc23)C1 (configuration not stated),17,2
CCOC(=O)CSc1nnc2[nH]c(=O)cc(CC)n12,-5,-8
Cc1nn(-c2ccccc2)c2[nH]c(C(F)(F)F)cc(=O)c12,1,0
O=C(c1nc2sccn2c1CN1CCC(OCc2cccnc2)CC1)N1CCCCC1,3&-7,-3&-12
Cc1cc(NCc2cn[nH]c2-c2cccs2)nc(-c2cccnc2)n1,5,2
CC1CCc2c(nc3sc4c(c3c2N)CCCC4)C1 (configuration not stated),12,19

Only part of the results is shown, so the mix of outcomes need not match the whole.
